From PubChem
HSD17B inhib: inhibitors of human HSD17B10 dehydrogenase; Q99714; recombinant HSD17B10, NADH fluorescence kinetic; many of its hits are not listed in these tables; Potency, µM (highest dose often 57.1 µM), inactives show at the top dose activity change, negative = inhibition, hits mostly inhibitors; 7.6% of 75,000 active; AID 893; active = well fitted inhibition curve with a large enough effect; inconclusive = small, poorly fitted or top-dose-only effect; inactive = no such curve, though single readings can be large or run the other way;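 note: the protocol describes HADH2 (HSD17B10) and not the HSD17B4 of the title; nearly all actives have a fitted effect of over 70% in size; most hits overshoot -100% by far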
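20 nM HADH2, pH 9.0 Tris/Tween; cpd preinc 15 min RT; start w/ 1 mM NAD+ + 90 uM b-hydroxybutyryl-CoA; kinetic fluor ex360/em450 q30s x 4 min; delta last-first.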
An asterisk follows results filed as active; ? = inconclusive; & = joins results of further samples; [ ] = another dose, or the depositor's remark. % is set by controls: 0 for no effect and ±100 for the full control effect; potency is the fitted concentration of half-maximal effect. The list is partial; the hit share may differ from the screen's.

smiles | HSD17B inhib
O=C(CCCCCn1c(SCc2ccncc2)nc2ccccc2c1=O)NCc1ccco1 | ?
O=C(CCCN1C(=O)c2ccccc2C1=O)Nc1sc2c(c1C(=O)NCc1ccco1)CCC2 | -4%
COc1ccc(C(C)(C)C)cc1NC(=O)c1c(C)noc1C | 5%
Cc1nn(-c2nc3ccccc3s2)c(C)c1Oc1ccccc1O | ?
CCOC(=O)C1C2C=CC3(CN(C4CCCC4)C(=O)C13)O2 (stereo unspecified) | 5%
CCOC(=O)Cc1nnc(NC(=O)Nc2ccccc2)s1 | ?
O=C(NCc1ccc2c(c1)OCO2)c1cc(-n2cnnc2)ccc1Cl | -5%
Nc1nc(SCC(=O)Nc2ccc(Br)cc2F)n[nH]1 | 7%
O=C(Cn1cnc2c(nnn2Cc2ccc(F)cc2)c1=O)OCc1ccccc1 | -5%
CCCN1C(=O)C(NC(C)=O)c2cc(OC)ccc21 (stereo unspecified) | -4%
Cc1c(N=Cc2ccc(-c3ccc(Cl)cc3)o2)c(=O)n(-c2ccccc2)n1C | 7%
Cc1cc2ncn(S(=O)(=O)N3CCOCC3)c2cc1C | 2%
CN(C)CC(C)(C)CNC(=O)c1ccc(-n2c(=O)c(=O)[nH]c3ccccc32)cc1 | -7%
CCOC(=O)c1ccc(Oc2c(C)oc3c(CN4CCN(C)CC4)c(O)ccc3c2=O)cc1 | 32µM*
c1csc(-c2nnc3ccccn23)c1 | 32µM*
C[C@@H]1CC2(OC3C[C@@]4(C)C5=CC[C@H]6C(C)(C)C(O[C@@H]7OC[C@@H](O)[C@H](O)[C@H]7O)CC[C@@]67C[C@@]57CC[C@]4(C)C31)OC(O)C1(C)OC21 (stereo partly specified) | 5%
CC(C)c1ccc(OCC(=O)NCc2ccco2)cc1 | 3%
Cc1cccc(-n2nnc(C(=O)NC3CCCc4ccccc43)c2N)c1 (stereo unspecified) | -9%
COC(=O)CCc1nc2ccccc2[nH]c1=O | 32µM*
O=C(CSc1nc(O)cc(=O)[nH]1)Nc1ccc2c(c1)CCC2 | ?
Clc1ccccc1Cn1nnc2c(N3CCCC3)ncnc21 | -6%
Cc1cc(C(=O)NCCN2CCCCC2C)n(-c2ccccc2)n1 (stereo unspecified) | 12%
CCn1c(SCC(=O)Nc2nonc2C)nnc1-c1ccco1 | 16%
Cc1cccc2cc(CN(Cc3ccco3)C(=O)N3CCCC3)c(=O)[nH]c12 | 1%
N#CCc1nnc2n1-c1ccccc1CCC2 | -2%
CSCCC(NS(=O)(=O)c1ccc2c(c1)oc(=O)n2C)C(=O)NC1CCC(C)CC1 (stereo unspecified) | 6%
COC(=O)c1cc(OC)c(OC)cc1NC(=O)CN1CCOCC1 | -12%
Cc1cccc(NC(=O)CCc2ccc(C)o2)c1 | 4%
CCCCNC(=O)CC1C(=O)N(Cc2ccccc2)C(C)c2nc3ccccc3n21 (stereo unspecified) | -1%
Cn1nc(-c2ccc(N3CCCCC3)c(NC(=O)c3ccco3)c2)c2ccccc2c1=O | 2%
CCOC(=O)c1sc(NC(=O)CSc2nc3c(cc2C#N)CCC3)c(C#N)c1C | -3%
COc1ccc(N=C2SC(CC(=O)Nc3ccc(OC)cc3OC)C(=O)N2C)cc1 (stereo unspecified) | -4%
NC(=O)C1CCC(NC(=O)OCc2ccccc2)CC1 (stereo unspecified) | 3%
CCC(c1nnnn1C1CCCC1)N1CCN(C(=O)c2ccco2)CC1 (stereo unspecified) | 6%
Cc1sc2ncnc(Sc3nnnn3-c3ccc(Cl)cc3)c2c1C | 13µM*
Cc1ccc(OCC(O)Cn2c(N3CCOCC3)nc3c2c(=O)[nH]c(=O)n3C)cc1 (stereo unspecified) | 0%
O=C(c1c(Cl)nc2sccn12)N(C(=O)c1c(Cl)nc2sccn12)c1ccc(Cl)cn1 | -23%
O=C(OCC(=O)N1CCOCC1)C(c1ccccc1)c1ccccc1 | 1%
Cc1nnc(N(Cc2ccco2)C(=O)c2ccno2)s1 | -2%
Cc1ccccc1OCC1Cn2c(nc3c2c(=O)[nH]c(=O)n3C)O1 (stereo unspecified) | -1%

Taken from above, four compounds:
smiles | HSD17B inhib
O=C(c1c(Cl)nc2sccn12)N(C(=O)c1c(Cl)nc2sccn12)c1ccc(Cl)cn1 | -23%
O=C(OCC(=O)N1CCOCC1)C(c1ccccc1)c1ccccc1 | 1%
Cc1nnc(N(Cc2ccco2)C(=O)c2ccno2)s1 | -2%
Cc1ccccc1OCC1Cn2c(nc3c2c(=O)[nH]c(=O)n3C)O1 (stereo unspecified) | -1%

(listing goes on)
smiles | HSD17B inhib
COc1ccc(-n2ncc3c(N4CCc5ccccc54)ncnc32)cc1 | 12%
CC(=O)OCC1OC(c2ccc(C(C)=O)cc2)C=CC1OC(C)=O (stereo unspecified) | ?
Clc1ccc(-c2nnc3ccccn23)cc1 | ?
CC(=O)Nc1ccc2c(c1)C(=Nc1ccc(C(=O)O)cc1)c1ccccc1-2 | -4%[11.4 µM]
OCC1OC(C#Cc2ccccc2)C=CC1OCc1ccccc1 (stereo unspecified) | 0%[11.4 µM]
O=C(CCc1ccc(S(=O)(=O)N2CCOCC2)cc1)Nc1cc(Cl)ccc1N1CCOCC1 | -2%
Clc1cccc(-c2nc(-c3ccccn3)no2)c1 | -5%
O=C(OCCN(CCOC(=O)c1ccncc1)S(=O)(=O)c1cccs1)c1ccncc1 | 6%
O=C(c1cn(-c2ccccc2)nc1-c1ccc(F)cc1)N1CCOCC1 | 8%
Cn1c2c(c(=O)n(C)c1=O)CN(CCN1CCNCC1)CN2 | -2%
N=c1ccn2c(n1)O[C@H]1[C@@H](OP(=O)(O)O)[C@H](CO)O[C@H]12 | 6%[11.4 µM]
O=C(Nc1nc2c(s1)CCCC2)c1cc2n(n1)C(C(F)(F)F)CC(C1CC1)N2 (stereo unspecified) | -23%
O=C(Nc1ccc2c(c1)OCO2)c1cnn2c(C(F)(F)F)cc(-c3ccco3)nc12 | -1%
C=CCOC(=O)Nc1ccc(Cl)cc1NC(=O)OCC=C | 5%
O=C1[C@H]2[C@H]3[C@H](O)[C@H](O)C/C(=N/OCc4ccccc4)[C@H]3CC[C@@H]2C(=O)N1Cc1ccccc1 | 5%[11.4 µM]
Cc1c(C2OC(=O)C3(CCCCC3)C(=O)C2(C)C)c(=O)n(-c2ccccc2)n1C (stereo unspecified) | 10%
CCN(CC)C(=O)CSc1nc2cc3c(cc2c(=O)n1Cc1ccc2c(c1)OCO2)OCO3 | 5%
O=C(Cc1ccc(-c2ccccc2)cc1)N1CCOCC1 | 1%
C[C@]1(O)CC[C@H]2[C@H]3CC=C4N5CCN=C5CC[C@@]4(C)[C@H]3CC[C@@]21C | 9%[11.4 µM]
CC1CCCN(c2ccc(C(=O)NCCc3ccccc3)cn2)C1 (stereo unspecified) | -16%
CCOc1cccc(C2C(C(=O)c3ccc(C)o3)=C(O)C(=O)N2c2nccs2)c1 (stereo unspecified) | -11%
COc1cc(Cl)c(S(=O)(=O)NCc2cccnc2)cc1Cl | -2%
CC(=O)N1CCCc2cc(S(=O)(=O)CCC(=O)N3CCN(c4cccc(C)c4)C(C)C3)ccc21 (stereo unspecified) | -6%
Cc1ccc(SCC(=O)NCC(C)C)cc1 | 4%
Cc1cc2cc(C(c3nnnn3CC3CCCO3)N3CCCc4ccccc43)c(=O)[nH]c2cc1C (stereo unspecified) | 1%
CC(=O)Nc1cccc(NC(=O)C2CCCN2C(=O)Nc2ccccc2C)c1 (stereo unspecified) | 5%
COc1ccc(C(=O)Nc2cc(-c3nn4c(C)nnc4s3)ccc2C)cc1 | -1%
O=C(CN1CCOc2ccccc21)N1CCCC1 | 2%
O=C(NC1CCCCC1)NC1CCCCC1 | 2%
CC(CO)(CO)N=Cc1cc(I)cc(I)c1O | -21%[11.4 µM]
Clc1ccc(Cn2ncc3c(NCCN4CCOCC4)ncnc32)cc1 | 7%
COc1ccc(OC(C)C(=O)N2CCOCC2)cc1 (stereo unspecified) | 6%
O=C1c2ccccc2C(Nc2ccc(-c3nc4ccccc4[nH]3)cc2)N1Cc1ccco1 (stereo unspecified) | 32µM*
COc1cc2c(cc1OC)C(Cc1ccc(O)cc1)N(C)CC2 (stereo unspecified) | -25%
CCCC(=O)Nc1ccccc1-c1nnn(CC(=O)Nc2ccc(OCC)cc2)n1 | -5%
Cc1ccc2cc(CN(C(=O)c3ccncc3)C(C)C)c(=O)[nH]c2c1 | -9%
O=c1c2c(nc3cc(-c4ccc(F)cc4)[nH]n13)CCCC2 | 2%
COc1ccc(F)cc1S(=O)(=O)Nc1ccccc1C(=O)O | -11%
COc1cc2c(cc1OC)C(C)N(C(=O)Cn1ncc3c1-c1ccccc1OC3)CC2 (stereo unspecified) | 0%
Cc1cc(C)nc(NC(=O)COc2ccc(Cl)cc2)c1 | -1%[11.4 µM]
COc1ccc(NC(=O)N2CC(C)OC(C)C2)cc1OC (stereo unspecified) | 13%
C/C(CCN1CCCCc2nc(C)c(C)cc21)=N\O[C@@H](C)CN1CCCCc2nc(C)c(C)cc21 | 2%[11.4 µM]
O=C(CN1C(=O)CSC1=O)Nc1ccc2c(c1)OCCO2 | -3%
COc1ccc(-c2ccc(SCC(=O)Nc3cc(C)on3)nn2)cc1OC | 0%
COCC1C2CC[C@H]3C(OCc4ccc(OC)cc4)OC[C@]4(C)[C@H]3C2=C(CN4C(=O)OC(C)(C)C)[C@H](C)C1COC (stereo partly specified) | 2%
Cc1csc(NC(=O)CSc2nc3ccccc3c(=O)[nH]2)n1 | 17%
COc1cc(N)c(Cl)cc1NC(=O)c1ccccc1 | 0%
COc1cc(OC)cc(C(=O)NCCN2CCOCC2)c1 | 4%

Looked up by compound from the list above:
smiles | HSD17B inhib
O=C(CN1CCOc2ccccc21)N1CCCC1 | 2%
COc1cc2c(cc1OC)C(C)N(C(=O)Cn1ncc3c1-c1ccccc1OC3)CC2 (stereo unspecified) | 0%
C[C@]1(O)CC[C@H]2[C@H]3CC=C4N5CCN=C5CC[C@@]4(C)[C@H]3CC[C@@]21C | 9%[11.4 µM]
CCCCNC(=O)CC1C(=O)N(Cc2ccccc2)C(C)c2nc3ccccc3n21 (stereo unspecified) | -1%
O=C(NCc1ccc2c(c1)OCO2)c1cc(-n2cnnc2)ccc1Cl | -5%

Later entries:
smiles | HSD17B inhib
OCC1OC(C#Cc2ccccc2)C=CC1O (stereo unspecified) | 1%&5%&-4%[11.4 µM]
O=C(COc1ccc(Cl)cc1)Nc1ccc2oc(-c3ccncc3)nc2c1 | 25µM*
O=S(=O)(NC1=NCCCCCC1)c1cccs1 | 10%
Clc1ccc2nc(NC3=NCN(CCN4CCOCC4)CN3)nc(-c3ccccc3)c2c1 | -15%
Cc1cccn2c(=O)c(/C=N/O)c(N3CCCCC3)nc12 | 3%
COc1ccc(NC(=O)CCN2CCC(C)CC2)cc1 | 10%
N#Cc1nc(-c2cccs2)oc1N1CCN(c2ccccc2)CC1 | 32µM*
Cc1cc(C)c(NC(=O)CSc2nnc(-c3ccncc3)n2Cc2ccco2)c(Cl)c1 | 3%
CSCCC(/C(O)=C(\C#N)c1nc2ccccc2[nH]1)N1C(=O)c2ccccc2C1=O (stereo unspecified) | 3%
O=c1ccnc(NCCc2ccccc2)[nH]1 | 3%
Cc1ccc(S(=O)(=O)Cn2nnnc2C(C(C)C)N2CCN(C(=O)c3ccco3)CC2)cc1 (stereo unspecified) | 5%
COCCN(Cc1cc2cccc(C)c2[nH]c1=O)C(=O)c1ccccc1 | ?
O=C(Nc1ccccc1)c1ccc(F)c(S(=O)(=O)N2CCOCC2)c1 | 9%
COc1cc(-c2nnc(-c3ccco3)o2)ccc1OCc1ccccc1 | 25µM*
Clc1ccccc1-c1nn2c(-c3ccncc3)nnc2s1 | -14%
COC(=O)CSc1nnc(CNC(=O)c2cc(OC)c(OC)c(OC)c2)n1C | 0%
Cc1ccc(NC(=O)COC(=O)c2ccn(C)n2)cc1 | 2%
CCC1(COC(=O)Nc2cccc(Cl)c2)COC1 | -1%
COC(=O)COc1ccc(S(=O)(=O)Nc2ccc3c(c2)OCO3)cc1Cl | 2%
O=C(OCCn1cncn1)c1cc2ccccc2oc1=O | 25µM*
CCCCn1c(SCC(=O)NCc2ccccc2)nc2ccc(N3CCOCC3)cc2c1=O | ?
Cc1ccccc1CS(=O)(=O)CCC(=O)NCc1ccccn1 | 4%
CC(=O)Nc1cccc(-c2nnc(SCC(=O)N3CCCCC3)n2C)c1 | 25µM*
COc1ccc(C(=O)Nc2ccc(Cl)cc2C(=O)NCCO)cc1 | 1%
COc1ccc(-c2noc(CCN3C(=O)c4ccccc4C3=O)n2)cc1OC | 6%
Cc1ccc(S(=O)(=O)N2CCC(C(=O)N[C@@H](C)C(=O)NCC3CCCO3)CC2)cc1 (stereo partly specified) | -1%
CCc1ccccc1N1CC23C=CC(O2)C(C(=O)OC)C3C1=O (stereo unspecified) | 12%
O=C(NCc1cccs1)c1cc2c(s1)CS(=O)(=O)C2 | 7%
COc1ccc2nc(NC(=O)CSC3=NCCS3)sc2c1 | -8%
O=S(=O)(c1ccccc1)n1nc(-c2ccccc2)nc1NCc1ccco1 | -5%
O=c1[nH]c(CN2CCN(C/C=C/c3ccccc3)CC2)nc2cc(Cl)ccc12 | 12%
Cc1ccc(NC(=O)CSc2nnc(-c3ccc(S(=O)(=O)N4CCOCC4)cc3)n2C)cc1 | 10%
NC(=NCCC[C@H](N)C(=O)O)NO | 4%
C[C@@H]1NCC[C@H](CC(=O)O)[C@H]1CC(=O)O | -1%[11.4 µM]
COCCNC(=O)CS(=O)Cc1nc(-c2ccccc2C)oc1C (stereo unspecified) | 2%
